VDR inhibitor: vitamin D3 receptor (human) inhibition; VDR-SRC2-3 peptide fluorescence polarization, 2 h; Potency, µM, without a hit: max response, negative = inhibition, hits mostly inhibitors; AID 504847; 0.93% of 400,000 active; P11473; active means well fitted inhibition curve with a large enough effect; inconclusive means small, poorly fitted or top-dose-only effect, or another doubt; inactive means no such curve, though single readings can be large or run the other way; further: series mostly up to about 120 µM
Target sequence (P11473 whole entry, looked up): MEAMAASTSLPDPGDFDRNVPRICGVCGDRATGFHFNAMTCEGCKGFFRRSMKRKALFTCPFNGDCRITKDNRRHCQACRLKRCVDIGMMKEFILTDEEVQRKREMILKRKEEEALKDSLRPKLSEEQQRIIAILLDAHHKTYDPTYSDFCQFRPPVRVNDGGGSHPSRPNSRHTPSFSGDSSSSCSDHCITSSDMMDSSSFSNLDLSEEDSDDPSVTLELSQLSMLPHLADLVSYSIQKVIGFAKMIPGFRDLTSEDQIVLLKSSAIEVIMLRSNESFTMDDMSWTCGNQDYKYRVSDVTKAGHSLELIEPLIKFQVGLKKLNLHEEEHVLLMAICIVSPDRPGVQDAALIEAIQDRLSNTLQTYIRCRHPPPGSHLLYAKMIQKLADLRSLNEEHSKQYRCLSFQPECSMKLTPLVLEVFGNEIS
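Two reagent solutions held at 4 deg C in the dark were dispensed, compounds pinned at 23 nl, and the mixture incubated 2 h at room temperature. Read-out: fluorescence polarization of VDR–SRC2-3 peptide binding.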
Numbers without * were called inactive; ? = inconclusive; & = joins results of further samples. On the % scale 0 is the no-effect control and ±100 the full control effect; potency means the concentration at half of the fitted maximal effect. Some of the compounds tested; the hit share may differ from the screen's.

SMILES | VDR inhibitor
COc1ccc2[nH]c(=O)c(CNc3ccccc3OC)cc2c1 | 4%
O=c1oc(-c2ccccc2F)nc2scc(-c3ccccc3)c12 | -10%
NC(=O)c1nsc(C(=O)N(CC(=O)NC2CCCCC2)Cc2ccc(F)cc2)c1N | -14%
CCOc1ccccc1N1CCN(C(=O)c2cc3cc(OC)ccc3[nH]2)CC1 | 18%
CC1(C)Cc2c(C#N)c(NCc3ccco3)nc(-c3ccco3)c2CO1 | 5%
CSc1ccc(N2CCN(CCCNC(=O)Nc3ccccc3F)CC2)cc1 | -4%
CCOC(=O)C1(Cc2cccc(OC)c2)CCN(Cc2ccc(C)s2)CC1 | -14%
Clc1ccc(C[n+]2csc3ccccc32)cc1 | 50µM*
COc1ccc(C2=NS(=O)(=O)N(C)C(C(=O)Nc3ccc(C(C)=O)cc3)=C2)cc1OC | 17%
O=C(CCCN1C(=O)c2ccccc2C1=O)Nc1ccc2c(c1)OCCO2 | -20%
COc1ccccc1CNC1CCCc2ccccc21 (centres undefined) | 19%
C#CCOCCOCCOCCNc1nc(N2CCN(C(=O)[C@H](CCCN=C(N)N)n3cc(C(N)[C@@H](C)CC)nn3)CC2)nc(N2CCN(C(=O)[C@H](CCCCN)n3cc([C@@H](N)CC(N)=O)nn3)CC2)n1 (some centres undefined) | -4%
Cc1ccc(-c2nnn(CC(=O)N(c3ccccc3F)C(C(=O)NC3CCCC3)c3ccco3)n2)o1 (centres undefined) | 17%
CN(C)C(=O)c1cc(Cl)ccc1Sc1cc(Cl)ccc1Cl | -4%
CC(C)Sc1nnc(CNC(=O)C23CC4CC(CC(C4)C2)C3)n1Cc1ccccc1 | 1%
Cc1cccc(-c2nc(CS(=O)CC(=O)N3CCc4ccccc4C3)c(C)o2)c1 (centres undefined) | -25%
COc1ccc(N2C(=O)c3ccc(C(=O)OC(C)C)cc3C2=O)cc1 | -20%
NC[C@H]1O[C@@H](n2cnc3c(N)ncnc32)[C@H](O)[C@@H]1O | -5%
CCN(CC)CC(=O)N1c2ccccc2Sc2ccccc21 | -14%
CC1CC(C)CN(C(=O)COc2ccc(-c3nnco3)cc2)C1 (centres undefined) | 7%
O=C(CN1CCCC1)Nc1ccccc1C(=O)c1ccccc1 | 5%
Cc1ccc(N(CCC#N)C(=O)COC(=O)C2CCN(S(=O)(=O)c3ccc4c(c3)OCCO4)CC2)cc1 | -20%
Cc1c(C(=O)Nc2ccc(S(=O)(=O)Nc3ncccn3)cc2)oc2ccccc12 | 20%
COc1ccc(N2CCN(C(c3ccc(C)cc3)c3nnnn3C(C)(C)C)CC2)cc1 (centres undefined) | -11%
O=C(NNS(=O)(=O)c1ccc2ccccc2c1)NC1CCCCC1 | -3%
CCc1nnc2sc(-c3cc(-c4ccccc4)nc4ccccc34)nn12 | -4%
COc1ccc(C(=O)NCC(=O)OCC(=O)c2cccc3ccccc23)cc1 | -2%
CC(=O)c1cccc(Nc2nc(-c3cccc(C)c3)nc3ccccc23)c1 | 18%
COc1cc(SC)ccc1C(=O)N1CCn2c3c(c4cc(C)ccc42)CCCC31 (centres undefined) | -6%
C/C(=N/NC(=O)c1ccccn1)c1ccc(O)cc1 | -7%
COc1cc(OC)cc(-c2nc(-c3ccc4c(c3)[nH]c(=O)n4C)no2)c1 | 0%
Cc1[nH]n(-c2cccc3ccccc23)c(=O)c1/C=N/NC(=O)c1cccc([N+](=O)[O-])c1 | 10%
O=C(c1ccc(Br)c(S(=O)(=O)N2CCCCC2)c1)N1CCCCC1 | 0%
Cn1c(=O)c(=O)n(C)c2cc(S(=O)(=O)CCC(=O)Nc3ccc(C(F)(F)F)cc3)ccc21 | -4%
CN(Cc1nc2ccccc2c(=O)[nH]1)C(=O)c1cccc(S(=O)(=O)N2CCc3ccccc32)c1 | 7%
CCNC(=S)Nc1ccc(Cc2nc3ccccc3[nH]2)cc1 | 7%
C=CCC1NS(=O)(=O)OC(CCCC)C1O (centres undefined) | 3%
CCC(=O)Oc1ccc(/C(CC)=C(\CC)c2ccc(OC(=O)CC)cc2)cc1 | -2%
COc1ccc(S(=O)(=O)N2Cc3ccccc3CC2C(=O)O)cc1OC (centres undefined) | -24%
O=c1[nH]c(/C=C/c2ccccn2)nc2ccccc12 | -8%
CCn1c(NCc2ccccc2Cl)nc2ccccc21 | 15%
O=C1CN(C(=O)CSc2nnnn2C2CC2)c2ccccc2N1 | ?
CC(=O)c1c(-c2ccc(C)cc2)nc2c3ccccc3ccn12 | -19%
CC(=O)N1c2ccccc2-c2nc3ccccc3n2C1C (centres undefined) | 21%
CC(C)=CC(=O)N1CCC(N2CCC(C(=O)N3CCOCC3)CC2)CC1 | -31%
c1ccc(-n2c(-c3ccco3)nnc2N2CCOCC2)cc1 | 11%
COc1ccc(N(CC(=O)NCC2CCCO2)S(=O)(=O)c2ccc(C)cc2)cc1OC (centres undefined) | -12%
CCOc1ccc(C(=O)c2cn(Cc3ccc(OC)cc3)c3cc(OC)c(OC)cc3c2=O)cc1 | -2%
Fc1ccc(/C=N/Nc2nn[nH]n2)cc1 | 12%
COc1ccc(CN(CC(=O)NC2CCCC2)C(=O)CCC(=O)Nc2nccs2)cc1 | -21%
CC(C1CC2CCC1C2)n1c(COc2ccccc2F)nnc1SCC(N)=O (centres undefined) | 1%
Cn1cccc1C(=O)NCc1ccccn1 | -2%
O=C(N/N=C/c1cn(-c2ccccc2)nc1-c1cccnc1)c1ccc(F)cc1 | -14%
Cn1cnc2c(N3CCCCC3)nccc21 | -7%
COC(=O)c1cc(S(=O)(=O)N2CCCC2=O)c(Cl)cc1Cl | -5%
CCC(C(=O)NCc1ccc(OC)cc1)n1nc(C)n2c(cc3occc32)c1=O (centres undefined) | -14%
CC(=O)Nc1ccc(NC(=S)NC(=O)c2ccc(C(C)(C)C)cc2)cc1 | ?
CC1Cc2ccccc2N1C(=O)CO/N=C/c1ccccc1OC(F)F (centres undefined) | 2%
Cc1nn(CC(=O)NCCCN2CC(C)CC(C)C2)c(=O)c2cccn12 (centres undefined) | -10%
CCOC(=O)c1c(N)sc(C(=O)Nc2ccc3c(c2)OCO3)c1C | 10%

Going on with the list.
SMILES | VDR inhibitor
C/C(NC(=O)c1cccc(F)c1)=C1/C(=O)C[C@@H]2[C@H]1C2(C)C | 4%
CC(=O)NC(c1ccc([N+](=O)[O-])cc1)c1c(O)ccc2ccccc12 (centres undefined) | -13%
C=C/C(C)=C/CC1C(=C)CCC2C(C)(C(=O)O)CCCC12C (centres undefined) | 11%
O=S(=O)(NN=C1CCCCCC1)c1ccccc1 | 14%
CSc1ncc(C(=O)Nc2cccc(S(N)(=O)=O)c2)n1-c1ccccc1 | -3%
Cc1[nH]c(C)c(S(=O)(=O)N(Cc2ccccc2)C(C)(C)C)c1C(=O)N1CCCC1 | -3%
COCCN(CC(=O)Nc1cccc(C)c1C)C(=O)C1CCN(S(=O)(=O)c2ccccc2)CC1 | -5%
O=S1(=O)CCOC(CO)CN1Cc1ccc(Cl)c(Cl)c1 (centres undefined) | 8%
Cn1nccc1NC(=O)CC(CC(=O)O)c1ccccc1 (centres undefined) | -1%
COc1ccc(Cl)cc1NC(=O)C(=O)NCc1ccc(Cl)cc1 | -16%
Cn1c(=O)cnc2cnc(OCc3ccccc3)nc21 | 7%
Cc1cccc(C)c1NC(=S)N(CCCN1CCOCC1)Cc1cccnc1 | 11%
CC(C)C(=O)Nc1ccc(NC(=O)c2ccc([N+](=O)[O-])cc2Cl)cc1 | 1%
O=C(Cc1c(Cl)cccc1Cl)OCC(=O)N1CCc2ccccc2C1 | 1%
CC(Sc1nc2ccccc2c(=O)n1CC1CCCO1)C(=O)N(C)c1ccccc1 (centres undefined) | -15%
COc1ccc(CCNC(=O)c2coc(=O)c(Br)c2)cc1 | -14%
Cc1onc(-c2ccccc2)c1C(=O)N1CCCC(C(F)(F)F)C1 (centres undefined) | 11%
COc1ccc(CCn2c(N)cc(=O)[nH]c2=S)cc1OC | 13%
COC(=O)[C@H](C)NC(=O)Nc1ccc(OC)c(OC)c1 | 20%
COC(=O)C1=CN(Cc2ccc(OC)c(OC)c2)C=C(C(=O)OC)C1c1ccc(O)cc1 | -20%
COc1ccc(-c2cc(C(F)(F)F)n3nc(-c4ccccc4)cc3n2)cc1OC | -18%
CC(=O)c1cnc2c(-c3ccccc3)c(C(F)(F)F)nn2c1C | 11%
CCN(CC)S(=O)(=O)c1ccc2c(c1)N(CC(=O)NCCCN1CCN(c3ccccc3F)CC1)C(=O)CO2 | 8%
Fc1cccc(CN2CCCCCCC2)c1 | -8%
CCCOc1ccc(OC(=O)c2cn(-c3ccc(OC)cc3)c(=O)c3ccccc23)cc1 | -6%
C=CCN(C(=O)Cc1cccs1)c1nc(-c2ccc(S(C)(=O)=O)cc2)cs1 | 17%
CCOC(=O)N1CCN(S(=O)(=O)c2ccc(C(=O)Nc3nc4ccccc4s3)cc2)CC1 | 6%
O=C(COc1ccccc1F)NNC(=O)c1ccc2c(=O)n3c(nc2c1)CCC3 | 0%
O=C1/C(=C/c2cccs2)SC(=S)N1N1CCOCC1 | -11%
Cc1c(Cl)cccc1NC(=O)C1=COCCO1 | -21%
CC(C)n1cc(CN2CCCC(C(=O)Nc3ccccc3Oc3cccnc3)C2)cn1 (centres undefined) | 28%
CC(=O)NC1=NN(C(C)=O)C(C)(CS(=O)(=O)c2ccc(C)c(C)c2)S1 (centres undefined) | 8%
COc1ccc(S(=O)(=O)NCc2nc3nc(C)cc(C)n3n2)cc1 | -2%&18%
O=C(COC(=O)c1cc(Cl)ccc1O)c1ccc2c(c1)OCO2 | -11%
COCC(=O)N1CCCC(CNS(=O)(=O)c2ccc(OC)cc2)C1 (centres undefined) | 4%
CC(Sc1nnc(C2CC2)n1C1CC1)C(=O)Nc1ccc(C(N)=O)cc1 (centres undefined) | 6%
CC(C)NC(=O)C1(S(=O)(=O)c2ccccc2)CC=CC1 | -21%
Cc1cccc(-c2cc(-c3ccccc3)nc(SCC(=O)Nc3ccccc3)c2C#N)c1 | -11%
CC(C)C(=O)Nc1nc2c(c(=O)[nH]1)CCCC2 | -17%
Cc1cccc(NC(=O)CSc2nc3ccc(NC(=O)c4cccs4)cc3s2)c1 | 3%
CC(C)OC(=O)c1cn(-c2ccccc2)nc1-c1ccc2c(c1)OCCO2 | 4%
CC(C)(CNC(=O)c1cccs1)N1CCOCC1 | -18%
CC(C)(C)NC(=O)C1CCN(c2ccc(S(=O)(=O)N3CCOCC3)cc2Cl)CC1 | 4%
CCc1ccc(/C=C\C(=O)N2CCCC2)cc1 | 11%
COc1ccc(NS(=O)(=O)c2ccc(NC(=S)NC(=O)/C=C/c3ccccc3)cc2)nn1 | -16%
O=[N+]([O-])c1ccc(O)c(P(=O)(c2ccccc2)c2ccccc2)c1 | 4%
CCOC(=O)c1cccc(NC(=O)C2CCCO2)c1 (centres undefined) | -8%
CC(C)(C)NC(=O)C(=O)NCCC1=CCCCC1 | -4%
Cc1cccc(NC(=O)CC2NCCNC2=O)c1 (centres undefined) | 10%
O=C(c1ccc(Cl)s1)N1CCN(C23CC4CC(CC(C4)C2)C3)CC1 | -7%
Cc1ccc(-c2noc(-c3cc(C(C)(C)C)nn3Cc3ccccc3)n2)cc1 | -15%
CCOC(=O)c1ccc(NC(=S)NNC(=O)c2cc(-c3cccnc3)nc3ccccc23)cc1 | ?
Cc1cc(NC(=O)NC(=O)c2cccc(OC(F)(F)C(F)F)c2)n[nH]1 | -1%
CC(=O)Nc1ccccc1C(=O)C(=O)NCCc1ccccc1 | -26%
CC(C)(C)NS(=O)(=O)c1ccc(NS(=O)(=O)Cc2ccccc2)cc1 | 24%
O=C(N/N=C/c1cccc(OCc2ccccc2)c1)c1ccc(Br)o1 | -4%
CCCCOC(=O)c1ccc(NC(=O)c2ccc3c(c2)CCCN3S(C)(=O)=O)cc1 | -3%
O=C(COc1ccc([N+](=O)[O-])cc1)N1CCC(c2nc3ccccc3s2)CC1 | 13%
Cc1ccc(S(=O)(=O)N2CCN(C(=O)CN3CCN(C)CC3)C2)cc1 | -9%
CCCN1CCN(CCNC(=O)Nc2cc(C)ccc2OC)CC1 | 4%
Cc1cccc(C)c1N1C(=O)CCC(C)(C)C1=O | 9%

Laid out differently: 18 of the compounds above
SMILES	VDR inhibitor
COc1ccc2[nH]c(=O)c(CNc3ccccc3OC)cc2c1	4%
O=c1oc(-c2ccccc2F)nc2scc(-c3ccccc3)c12	-10%
NC(=O)c1nsc(C(=O)N(CC(=O)NC2CCCCC2)Cc2ccc(F)cc2)c1N	-14%
CCOc1ccccc1N1CCN(C(=O)c2cc3cc(OC)ccc3[nH]2)CC1	18%
CC1(C)Cc2c(C#N)c(NCc3ccco3)nc(-c3ccco3)c2CO1	5%
CSc1ccc(N2CCN(CCCNC(=O)Nc3ccccc3F)CC2)cc1	-4%
CCOC(=O)C1(Cc2cccc(OC)c2)CCN(Cc2ccc(C)s2)CC1	-14%
Clc1ccc(C[n+]2csc3ccccc32)cc1	50µM*
COc1ccc(C2=NS(=O)(=O)N(C)C(C(=O)Nc3ccc(C(C)=O)cc3)=C2)cc1OC	17%
O=C(CCCN1C(=O)c2ccccc2C1=O)Nc1ccc2c(c1)OCCO2	-20%
COc1ccccc1CNC1CCCc2ccccc21 (centres undefined)	19%
C#CCOCCOCCOCCNc1nc(N2CCN(C(=O)[C@H](CCCN=C(N)N)n3cc(C(N)[C@@H](C)CC)nn3)CC2)nc(N2CCN(C(=O)[C@H](CCCCN)n3cc([C@@H](N)CC(N)=O)nn3)CC2)n1 (some centres undefined)	-4%
Cc1ccc(-c2nnn(CC(=O)N(c3ccccc3F)C(C(=O)NC3CCCC3)c3ccco3)n2)o1 (centres undefined)	17%
CN(C)C(=O)c1cc(Cl)ccc1Sc1cc(Cl)ccc1Cl	-4%
CC(C)Sc1nnc(CNC(=O)C23CC4CC(CC(C4)C2)C3)n1Cc1ccccc1	1%
Cc1cccc(-c2nc(CS(=O)CC(=O)N3CCc4ccccc4C3)c(C)o2)c1 (centres undefined)	-25%
COc1ccc(N2C(=O)c3ccc(C(=O)OC(C)C)cc3C2=O)cc1	-20%
NC[C@H]1O[C@@H](n2cnc3c(N)ncnc32)[C@H](O)[C@@H]1O	-5%

Assay outcomes: PubChem BioAssay, National Center for Advancing Translational Sciences (NCATS)
